T cruzi inh: blocks replication of Trypanosoma cruzi; T. cruzi beta-gal in NIH3T3, luminescence, 90 h; 300,000 compounds, 1.4% hits; inhibition, % (no concentration beside the values); AID 1885;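 active = mean inhibition across valid replicates above about 55%, limit read from the data; inconclusive = mean below that limit but half or more replicates reach it; inactive = mean below it, under half of replicates reach it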;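 also: signal also drops with host cell toxicity which is not excluded here; 0% = plate median of DMSO wells and 100% = zero luminescence signal; higher percent means less beta-gal luminescence so fewer parasites; stock transfer was 50 nL into about 50 µL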
Calb FLC: affects C. albicans growth with fluconazole; growth inhibition, % (no concentration beside the values); 300,000 compounds, 0.57% hits; C. albicans CaCi-2 (fluconazole-resistant clinical isolate) + fluconazole, Alamar Blue growth, 48 h; AID 1979;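 active = most replicates above 75%; inconclusive = exactly half above 75%; inactive = most below 75%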;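 also: all wells also contain fluconazole at 8 µg/ml as a sub-toxic cotreatment; 0% = median of DMSO wells and 100% = median of geldanamycin control wells; wells of about 8 µL received 7.5 nL stock; the first replicate is given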
Beta apoptosis: blocks beta cell apoptosis; protection from apoptosis, % (test concentration not listed); INS-1E cytokine-induced death, ATP luminescence, 48 h; percent of positive-control rescue, neutral wells zero; 300,000 compounds, 0.8% hits;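 active = all replicates at 75% or more, or half of them and the mean; inconclusive = half reach 75% but not the mean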;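 also: 0% = cytokine-treated negative control wells and 100% = positive control rescue; higher means more ATP so stronger rescue from cytokine killing; wells of about 40 µL received 100 nL stock; the first replicate is given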
Bfl-1 A1 inh: inhibitors of the anti-apoptotic protein A1, read as caspase activation. 330,000 compounds, 0.066% hits. MEF A1-2A-BIM cells, Caspase-Glo 3/7 luminescence, 3 h; percent of clofoctol response, vehicle zero. caspase activation, % (no concentration beside the values). AID 2462;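 active = over half of replicate activation scores above 10%, or exactly half above 10 with the replicate mean above 10; inconclusive = replicate mean below 10 yet half the replicates above 10; inactive = over half of replicates below 10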;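 also: wells of about 30 µL received 50 nL stock; many hits fall short of the cut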
Vif TR-FRET: HIV-1 Vif–A3G interaction blockers – biochemical, TR-FRET, GST-Vif 1-94, biotin-A3G peptide, dose response retest, primary screen (AID 1117319); TR-FRET GST-Vif / biotin-A3G peptide binding; higher % means a stronger effect; test concentration not given here; strong numbers were not always called active; 260,000 compounds, 0.57% hits; one-dose inhibition, %; IC50 in µM for titrated hits;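 active = above the screen mean plus three standard deviations and confirmed in dose response; inconclusive = results disagree or hit not tested in dose response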;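 also: Vif residues 1-94 fused to GST binding biotinylated APOBEC3G peptide 110-148; 0% = full assay without inhibitor and 100% = GST in place of GST-Vif; retest series ran down from 100 µM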
MLL AF4-AF9 inh: blocks AF4 peptide binding to human AF9; P42568; AlphaScreen, biotin-AF4 peptide binding to FLAG-AF9; inhibition, % at 10 µM; 350,000 compounds, 0.47% hits; AID 651704;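 active = every replicate reaching a set inhibition limit, whatever the replicate mean, cut at about 25% in these data; inconclusive = mean inhibition reaches that limit but some replicates miss it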;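 also: 0% = plate neutral control median and 100% = total signal loss; the record names both 10 and 1 µM as test concentration; the first replicate is given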
LANA-H2B inh: blocks KSHV LANA binding to histone H2A/H2B; Q9QR71; cell-free LANA-H2A/H2B peptide, fluorescence polarization; inhibition, % (test concentration not listed); 320,000 compounds, 0.6% hits; AID 2629; in the data active = inhibition mostly above about 10%, no sharp cut-off; inactive = mostly below about 6.7%;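 also: stock transfer was 7.5 nL into about 10 µL; 0% = median of vehicle wells and 100% = median of positive control wells; one replicate is shown; the record names a cut of 25% in any replicate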
Target sequence (Q9QR71 whole entry, looked up): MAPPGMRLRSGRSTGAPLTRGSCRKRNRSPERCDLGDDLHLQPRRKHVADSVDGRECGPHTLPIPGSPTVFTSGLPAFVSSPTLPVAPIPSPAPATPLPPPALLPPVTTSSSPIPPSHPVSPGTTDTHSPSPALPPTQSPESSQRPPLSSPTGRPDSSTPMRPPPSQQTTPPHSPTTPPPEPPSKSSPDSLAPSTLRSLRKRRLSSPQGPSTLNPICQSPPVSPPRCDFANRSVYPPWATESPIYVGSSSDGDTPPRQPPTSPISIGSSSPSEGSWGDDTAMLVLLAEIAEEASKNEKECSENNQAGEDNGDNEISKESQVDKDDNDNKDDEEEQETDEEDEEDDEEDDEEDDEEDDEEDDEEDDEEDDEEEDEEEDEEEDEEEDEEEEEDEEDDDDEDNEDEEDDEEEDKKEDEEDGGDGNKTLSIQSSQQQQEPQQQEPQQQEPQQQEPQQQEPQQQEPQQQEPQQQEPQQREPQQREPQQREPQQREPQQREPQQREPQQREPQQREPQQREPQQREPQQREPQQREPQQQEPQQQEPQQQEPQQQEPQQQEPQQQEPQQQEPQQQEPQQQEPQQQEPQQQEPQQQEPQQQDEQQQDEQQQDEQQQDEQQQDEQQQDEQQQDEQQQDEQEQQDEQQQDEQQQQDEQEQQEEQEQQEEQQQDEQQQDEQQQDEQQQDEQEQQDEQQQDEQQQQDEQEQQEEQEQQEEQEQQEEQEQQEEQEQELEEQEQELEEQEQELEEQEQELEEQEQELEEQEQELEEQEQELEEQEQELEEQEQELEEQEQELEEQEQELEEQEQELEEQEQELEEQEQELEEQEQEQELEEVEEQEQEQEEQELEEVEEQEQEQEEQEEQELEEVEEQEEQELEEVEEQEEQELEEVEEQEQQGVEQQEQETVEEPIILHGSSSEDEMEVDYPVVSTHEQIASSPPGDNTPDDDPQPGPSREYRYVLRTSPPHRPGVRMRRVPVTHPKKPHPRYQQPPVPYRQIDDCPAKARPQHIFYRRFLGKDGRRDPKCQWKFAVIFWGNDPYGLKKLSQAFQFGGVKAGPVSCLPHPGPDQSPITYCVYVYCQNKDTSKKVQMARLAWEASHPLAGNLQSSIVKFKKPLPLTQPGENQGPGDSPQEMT
RanGTP-Imp inh: inhibitors of RanGTP-importin-beta interaction, primary screen, biochemical, FRET, CFP-Ran, YFP-importin-beta, homogeneous. cell-free CFP-Ran/YFP-importin-beta FRET ratio. 300,000 compounds, 1.1% hits. AID 2216. inhibition, % (no concentration beside the values);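 active = most replicates above 15%; inconclusive = exactly half above 15%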;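 also: 0% = DMSO wells and 100% = Ran loaded with GDP instead of GTP; wells of about 40 µL received 100 nL stock; the first replicate is given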
An asterisk follows results filed as active; ? = inconclusive; · = no result given.

SMILES	T cruzi inh	Calb FLC	Beta apoptosis	Bfl-1 A1 inh	Vif TR-FRET	MLL AF4-AF9 inh	LANA-H2B inh	RanGTP-Imp inh
O=C1NCCN(Cc2c(F)cccc2Cl)C1CC(=O)N1CCCCO1 (stereo not drawn)	-8.9	5.6	-3.7	0.1	·	-1.3	-0.1	1.5
O=C(CN1CCN(Cc2ccc3c(c2)OCO3)CC1)Nc1ccc(F)cc1	14.7	-10.1	-5.3	-0.4	-1.2%	·	-3.9	3.6
CC(C)n1nccc1NC(=O)COC(=O)c1ccc(NC(N)=O)cc1	·	·	3.5	2.3	-4.4%	-4.5	-1.7	·
Nc1ccc(N2CCCCC2)c(S(=O)(=O)Nc2ccccc2Cl)c1	5.3	-3.3	-7.2	0.4	15.5%	8.5	-1.3	-2.1
CC(=O)CCC(=O)N1CCCC(N2CCN(c3cccc(Cl)c3)CC2)C1 (stereo not drawn)	-17.1	-4.6	·	1.0	·	-13.2	-1.4	1.4
Cc1ccc(OCCN2CCNCC2)c([N+](=O)[O-])c1	-2.0	-13.8	-1.0	0.1	-8.5%	0.2	1.2	-3.2
CCCc1nnc(NC(=O)c2cccnc2)s1	-19.7	0.6	-1.2	0.7	-10.4%	-5.2	1.9	-1.5
CCN=c1scc(-c2cccs2)n1/N=C/c1cc(OC)ccc1O	·	·	0.2	-7.0	11.2%	·	-4.2	·
O=C1CCCCC1Oc1ccc2ccc(=O)oc2c1 (stereo not drawn)	-7.7	0.0	-4.6	1.5	>100µM*	0.2	0.2	-1.5
S=c1[nH]nc(C2CCCCC2)n1/N=C/c1ccccc1Br	-5.4	-6.8	-7.3	-0.2	-0.3%	0.2	2.8	1.2
CNC(=O)CSc1nnc(-c2cccs2)o1	-13.2	13.4	-3.3	0.7	27.3%	·	1.7	-4.6
COc1ccc(-c2cn[nH]c2-c2ccc(OCc3ccccc3)cc2O)cc1OC	18.3	15.8	6.7	0.3	15.2%	1.9	1.2	?
COC(=O)c1ccccc1NC(=O)C1CCN(C(=O)c2cc(OC)cc(OC)c2)CC1	3.6	5.0	-4.7	1.1	-1.2%	·	2.0	8.2
O=C(NCc1cccnc1)Nc1cc(Cl)cc(Cl)c1	31.8	0.9	-1.3	0.4	1.2%	0.3	5.2	-1.0
Cc1[nH]ccc(=O)c1OC1OC(CO)C(O)C(O)C1O (stereo not drawn)	12.4	-6.1	-4.9	0.0	28.6%	-2.1	1.3	1.0
COc1cccc(N2C(=O)C3ON(c4ccccc4)C(c4cccs4)C3C2=O)c1 (stereo not drawn)	13.3	7.4	-4.3	-0.3	70.8%	-2.4	-0.7	2.7
CC(=O)c1ccc(OCC(O)CN2CCN(S(=O)(=O)c3cccc(Br)c3)CC2)cc1 (stereo not drawn)	2.7	3.1	5.2	-0.1	-3.1%	0.5	2.6	-6.4
Cc1cc(-c2onc(C)c2C(=O)N/N=C/c2ccccc2)no1	-7.9	-4.9	-1.4	-0.9	-6.1%	0.7	2.5	-1.1
Cc1ccc(/C=C2\CCCC3=C2NC(=S)NC3c2ccc(C)cc2)cc1 (stereo not drawn)	2.5	-13.1	-3.0	-0.9	?	-9.1	1.1	1.5
CC(C)N1CCc2c(sc(N)c2C#N)C1	-1.8	-6.3	-3.6	0.5	18.4%	-12.4	-23.5	68.5*
CC(C)(C)c1ccc(CNc2ccc([N+](=O)[O-])cn2)cc1	-5.1	-50.1	-3.6	-0.3	3.3%	·	14.5	-2.7
CC(C(=O)NCc1ccco1)n1nc(-c2ccccc2)c2cc(Cl)ccc21 (stereo not drawn)	-0.2	0.7	·	-0.9	-4.1%	-8.8	-2.1	4.2
O=C(CSc1nnc2c(n1)[nH]c1ccccc12)Nc1ccc(N2CCOCC2)cc1	0.4	2.8	7.7	0.2	·	-12.9	7.3	-1.1
Cc1c(NC(=O)CCCCCN2C(=O)c3ccccc3C2=O)c(=O)n(-c2ccccc2)n1C	6.8	13.3	-1.2	0.4	6.0%	·	0.7	2.9
CN(CC(=O)NCc1ccc(F)cc1)Cc1ccc(Br)cc1	-7.1	17.3	-6.4	-0.3	·	0.9	-1.9	2.7
COc1ccc(S(=O)(=O)N(C)C2CCN(C)CC2)cc1	28.3	-1.3	-5.1	-0.2	-1.5%	1.3	3.1	-3.0
OCCCNc1nc(-c2ccc(Cl)cc2)nc2ccccc12	22.4	39.4	3.5	0.2	·	6.6	-7.2	4.1
CC(C)c1cc(C(=O)Nc2cccnc2)no1	-18.6	-3.8	-0.7	-9.2	2.6%	7.2	1.5	3.0
CC(=O)c1ccccc1NC(=O)COc1ccc(N(C)S(=O)(=O)c2ccc(C)c(C)c2)cc1	·	·	0.2	-1.4	-5.3%	0.2	2.0	·
CCNC(=S)NNC(=O)c1cccc(Br)c1	-5.5	-7.7	15.4	-0.3	3.5%	·	-0.8	3.4
N#Cc1ccccc1NC(=O)CN1C(=O)NC2(CCCC2)C1=O	-9.9	-2.0	-6.6	0.2	·	0.3	-2.4	-2.8
C/C=C1\COC(C(=O)NCc2ccccc2)(C(F)(F)F)C=C1C=C(C)C (stereo not drawn)	13.0	6.7	-9.6	1.1	·	4.9	0.0	-0.7
CCN(CC)S(=O)(=O)c1ccc(N2CC(C(=O)NC3(C)CCS(=O)(=O)C3)CC2=O)cc1 (stereo not drawn)	·	·	0.5	-0.1	-7.1%	0.4	·	·
Cc1nn(-c2ccccc2)c(Cl)c1/C=N/NC(N)=O	11.5	5.2	1.4	0.5	0.9%	1.9	-1.0	0.5
CCOC(=O)c1[nH]c2ccc(Cl)cc2c1NC(=O)/C=C/c1ccc2c(c1)OCO2	-5.9	17.4	17.4	-0.9	·	2.1	-5.4	-1.1
CN(Cc1cccs1)C(=O)COC(=O)CNC(N)=O	-3.2	-6.9	0.0	-0.2	0.4%	-1.2	-5.1	-2.1
COc1ccc2c(c1)CC(C1(O)C(=O)N(C)c3ccccc31)C2=O (stereo not drawn)	1.0	?	-11.4	2.8	-5.2%	·	-8.8	9.3
CCN1C(=O)C(C(=O)c2ccccc2)SC1=S (stereo not drawn)	11.7	?	0.6	0.2	26.4%	·	-2.3	-1.4
Cc1cc(C)cc(NS(=O)(=O)c2ccc(F)cc2)c1	-3.1	10.7	-1.6	0.5	-4.0%	4.1	-2.3	-4.6
CCCCC(=O)N1CC2(C)CN(C(=O)CCCC)CC(C)(C1)C2=O	-16.4	-0.2	0.0	-0.3	-2.5%	·	1.1	-0.9
CCOc1ccc(C(C)=O)cc1N1C(=O)C2C(C1=O)C1C=CC2C12CC2 (stereo not drawn)	-3.4	8.6	-9.5	-0.7	-0.3%	6.1	-2.8	-5.0
CCN(CC)c1ccc(/C=C/C(=O)C2C(=O)C=C(C)OC2=O)cc1 (stereo not drawn)	-5.1	-12.2	12.8	?	-0.8%	-1.9	-10.2	-81.9
COc1ccc(CCNC(=O)Cc2ccc(OC)c(OC)c2)cc1OC	-8.1	-3.7	-6.3	-0.1	-4.4%	-1.1	4.3	0.1
O=C1c2ccccc2C(=O)N1CCCCN(C(=O)c1cc([N+](=O)[O-])cc([N+](=O)[O-])c1)c1ccc(Cl)cc1	41.9	-11.7	4.1	1.0	?	11.1	2.1	0.7
Cc1ccc(C(=O)N[C@@H](C)CN2C3=NC[C@H](C(C)C)N3C[C@H]2Cc2ccc(O)cc2)cc1Br	15.6	0.0	7.1	-0.8	5.1%	7.5	-3.6	?
Cc1cc2cc3c(=O)[nH]c(=O)[nH]c3nc2cc1C	-5.0	-7.0	2.4	-0.1	-94.7%	1.7	1.1	?
CCOCc1nnc(NC(=O)CCC2CCCCC2)s1	-9.6	-31.5	0.1	-0.5	·	-1.6	3.7	2.6
CC1=CC2(O)OCCN(CCO)C2=CC1=O (stereo not drawn)	-18.5	-3.9	-8.2	0.7	7.05µM*	-4.9	-3.8	3.0
CC(C)Oc1cccc(C(=O)Nc2ccccc2N2CCOCC2)c1	9.8	-6.4	-4.7	0.0	-2.6%	·	1.9	-1.5
CC1(C)Cc2c(sc(NC(=O)c3ccc(S(=O)(=O)N4CCCCCC4)cc3)c2C#N)C(C)(C)N1	6.7	35.6	·	0.6	-7.4%	-1.2	-13.2	5.1
COc1ccc(-n2nnnc2SCC(=O)c2ccc(OC)c(OC)c2)cc1	7.3	15.7	2.6	-0.1	1.5%	-42.4	0.1	5.3
COc1ccccc1NC(=O)CSc1nnnn1-c1ccc(F)cc1	-8.5	-8.9	-1.2	-1.0	3.4%	3.8	-2.5	0.4
Cc1ccc(N=c2sc(C)c(C)n2C)cc1	-15.0	-0.1	-4.4	-2.8	-1.9%	·	3.2	-0.3
COc1cccc(-n2nc(C(N)=O)c(O)cc2=O)c1	1.0	-4.3	-4.8	0.2	-7.9%	0.5	2.0	-0.9
CCCCn1c(N)c(N(CCOC)C(=O)c2cc(-c3ccc(C)cc3)nc3ccccc23)c(=O)[nH]c1=O	26.5	2.9	-5.4	0.9	·	-26.2	·	7.2
Cc1[nH]c(C)c(S(=O)(=O)NCc2ccc(F)cc2)c1C(=O)N1CCCC1	-8.8	3.5	-8.6	-1.3	-2.2%	2.9	4.5	4.3
O=C(Nc1nccs1)c1ccc(S(=O)(=O)c2ccccc2)cc1	2.0	2.6	-3.3	-0.2	11.5%	·	0.6	-4.6
O=C(NC1CS(=O)(=O)CC1NCc1ccco1)c1ccccc1 (stereo not drawn)	-1.1	-1.0	-7.9	-0.1	6.8%	·	-6.7	-6.0
Cc1ccc(C)c(NC(=S)NC(C)C(c2cccs2)N2CCOCC2)c1 (stereo not drawn)	-4.6	10.8	-7.3	·	-2.4%	-3.7	-3.6	-1.2
CCN(CC)CCCNC(=O)c1ccc2c3n(nc2c1)-c1ccc(Cl)cc1CO3	15.2	-3.4	-0.1	-2.0	·	9.9	4.1	-2.9

Next section
SMILES	T cruzi inh	Calb FLC	Beta apoptosis	Bfl-1 A1 inh	Vif TR-FRET	MLL AF4-AF9 inh	LANA-H2B inh	RanGTP-Imp inh
C=CCc1cccc2cc(C(=O)NCc3cccnc3)c(=O)oc12	-22.8	-4.7	-4.1	0.4	5.3%	·	-1.9	?
O=c1c2c(nc3cc(-c4cccc(Cl)c4)[nH]n13)CCCC2	23.5	1.0	10.1	-5.9	13.1%	0.0	-3.2	3.3
Cc1ccc(S(=O)(=O)NCCN2CCOCC2)c(C)c1C	1.9	53.8	-3.8	-0.1	4.3%	-0.5	1.1	6.0
CC(=O)Nc1ccc(NC(=O)C2CCCN(c3ncccn3)C2)cc1 (stereo not drawn)	2.7	-12.3	0.2	-0.6	-1.9%	·	2.4	-0.4
COc1ccc(OC)c(C(=O)CSc2nc3ncccc3[nH]2)c1	7.1	-3.9	-5.2	0.6	19.5%	·	1.6	-1.0
COc1ccc(NC(=O)Nc2ccc3nsnc3c2)cc1	-4.7	-11.6	4.9	-2.7	32.3%	·	-0.2	-3.3
O=C(OCC(=O)N1CCN(C(=O)c2ccco2)CC1)c1ccc(Cl)c(Cl)c1	·	·	-2.7	-0.1	3.8%	?	-0.3	·
